# From PubChem BioAssay
# Ecoli rRNA inh: inhibitors of bacterial rRNA selective over humanized ribosomes; E. coli WT GFP vs humanized-ribosome RFP mutants, fluorescence, 24 h; stronger effect = lower value; DMSO median 0, no signal -100; GFP signal change (wild-type ribosome), % (test concentration not listed); 350,000 compounds, 1.6% hits; AID 720706;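 active = significant combined selectivity score with lowered wild-type GFP, culture density cut under 30%, mutant RFP and density less affected; inactive = any of these conditions unmet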; also: one replicate is shown; some compounds called inactive have numbers as strong as hits
# Beta cell apopt: beta cell apoptosis inhibition; INS-1E cytokine-induced death, ATP luminescence, 48 h; percent of positive-control rescue, neutral wells zero; protection from apoptosis, % (concentration not given with the values); 300,000 compounds, 0.8% hits; AID 435005;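 active = all replicates at 75% or more, or half of them and the mean; inconclusive = half reach 75% but not the mean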;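 also: 0% = cytokine-treated negative control wells and 100% = positive control rescue; higher means more ATP so stronger rescue from cytokine killing; wells of about 40 µL received 100 nL stock; the first replicate is given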
# Vif TR-FRET: inhibitors of Vif binding to APOBEC3G peptide, primary screen, biochemical, TR-FRET, GST-Vif 1-94, biotin-A3G peptide, dose response retest (AID 1117319). TR-FRET GST-Vif / biotin-A3G peptide binding; higher % means a stronger effect; test concentration not given here; strong numbers were not always called active. one-dose inhibition, %; IC50 in µM for titrated hits. 260,000 compounds, 0.57% hits;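 active = above the screen mean plus three standard deviations and confirmed in dose response; inconclusive = results disagree or hit not tested in dose response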;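 also: Vif residues 1-94 fused to GST binding biotinylated APOBEC3G peptide 110-148; 0% = full assay without inhibitor and 100% = GST in place of GST-Vif; retest series ran down from 100 µM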
# MLL AF4-AF9 inh: blocks AF4 peptide binding to human AF9. P42568. AlphaScreen, biotin-AF4 peptide binding to FLAG-AF9. inhibition, % at 10 µM. 350,000 compounds, 0.47% hits. AID 651704;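 active = every replicate reaching a set inhibition limit, whatever the replicate mean, cut at about 25% in these data; inconclusive = mean inhibition reaches that limit but some replicates miss it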;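 also: 0% = plate neutral control median and 100% = total signal loss; the record names both 10 and 1 µM as test concentration; the first replicate is given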
# Target sequence (P42568 whole entry, looked up): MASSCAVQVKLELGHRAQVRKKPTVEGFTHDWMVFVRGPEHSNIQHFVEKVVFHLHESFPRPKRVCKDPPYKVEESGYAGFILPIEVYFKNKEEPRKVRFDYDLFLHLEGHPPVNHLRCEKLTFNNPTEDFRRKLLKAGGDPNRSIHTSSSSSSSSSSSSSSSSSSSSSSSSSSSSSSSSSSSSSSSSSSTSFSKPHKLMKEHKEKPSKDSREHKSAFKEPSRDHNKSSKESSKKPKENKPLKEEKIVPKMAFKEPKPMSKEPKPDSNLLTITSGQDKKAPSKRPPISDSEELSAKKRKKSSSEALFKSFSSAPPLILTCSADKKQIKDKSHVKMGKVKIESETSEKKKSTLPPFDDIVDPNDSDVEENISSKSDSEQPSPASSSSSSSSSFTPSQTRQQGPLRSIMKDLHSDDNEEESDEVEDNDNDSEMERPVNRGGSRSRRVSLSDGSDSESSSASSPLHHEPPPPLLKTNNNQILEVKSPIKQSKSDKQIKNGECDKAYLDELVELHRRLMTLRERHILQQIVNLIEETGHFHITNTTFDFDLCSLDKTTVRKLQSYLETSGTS
# Calb FLC: affects C. albicans growth with fluconazole. growth inhibition, % (concentration not given with the values). 300,000 compounds, 0.57% hits. C. albicans CaCi-2 (fluconazole-resistant clinical isolate) + fluconazole, Alamar Blue growth, 48 h;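 active = most replicates above 75%; inconclusive = exactly half above 75%; inactive = most below 75%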;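 also: all wells also contain fluconazole at 8 µg/ml as a sub-toxic cotreatment; 0% = median of DMSO wells and 100% = median of geldanamycin control wells; wells of about 8 µL received 7.5 nL stock; the first replicate is given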
# Bfl-1 A1 inh: inhibitors of the anti-apoptotic protein A1, read as caspase activation. 330,000 compounds, 0.066% hits. MEF A1-2A-BIM cells, Caspase-Glo 3/7 luminescence, 3 h; percent of clofoctol response, vehicle zero. caspase activation, % (no concentration beside the values);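 active = over half of replicate activation scores above 10%, or exactly half above 10 with the replicate mean above 10; inconclusive = replicate mean below 10 yet half the replicates above 10; inactive = over half of replicates below 10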;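 also: wells of about 30 µL received 50 nL stock; many hits fall short of the cut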
# T cruzi inh: blocks replication of Trypanosoma cruzi; T. cruzi beta-gal in NIH3T3, luminescence, 90 h; inhibition, % (test concentration not listed); 300,000 compounds, 1.4% hits; AID 1885;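 active = mean inhibition across valid replicates above about 55%, limit read from the data; inconclusive = mean below that limit but half or more replicates reach it; inactive = mean below it, under half of replicates reach it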;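 also: signal also drops with host cell toxicity which is not excluded here; 0% = plate median of DMSO wells and 100% = zero luminescence signal; higher percent means less beta-gal luminescence so fewer parasites; stock transfer was 50 nL into about 50 µL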
# RanGTP-Imp inh: inhibitors of RanGTP-importin-beta interaction, primary screen, biochemical, FRET, CFP-Ran, YFP-importin-beta, homogeneous; inhibition, % (no concentration beside the values); cell-free CFP-Ran/YFP-importin-beta FRET ratio; 300,000 compounds, 1.1% hits; AID 2216;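 active = most replicates above 15%; inconclusive = exactly half above 15%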;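 also: 0% = DMSO wells and 100% = Ran loaded with GDP instead of GTP; wells of about 40 µL received 100 nL stock; the first replicate is given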
# Ecoli rRNA inh OD600: recorded beside Ecoli rRNA inh, whose call it bears; OD600 change, %; measured here: OD600 growth;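 optical density of the mix in the first replicate; 0 = DMSO median and -100 = no signal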
# Ecoli rRNA inh RFP: second read-out of Ecoli rRNA inh, no call of its own (marks repeat the call); RFP signal change, %; measured here: RFP humanized mutant strains;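 first replicate; 0 = DMSO median and -100 = no signal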
# An asterisk follows results filed as active; ? = inconclusive; nt = no result given.
SMILES,Ecoli rRNA inh,Ecoli rRNA inh OD600,Ecoli rRNA inh RFP,Beta cell apopt,Vif TR-FRET,MLL AF4-AF9 inh,Calb FLC,Bfl-1 A1 inh,T cruzi inh,RanGTP-Imp inh
Nn1c(Cc2cccc3ccccc23)nnc1SCC(=O)NCC1CCCO1 (stereo unspecified),7.3,5.8,1.1,0.1,6.6%,-0.2,-0.8,0.4,-13.7,5.7
Cc1ccccc1C(=O)N1CCC(C(=O)N(C)CC(=O)Nc2cccc(F)c2)CC1,16.2,3.9,3.5,-6.2,-0.6%,-3.8,-6.6,0.9,-6.7,-1.7
OCc1ccccc1SSc1ccccc1CO,-3.0,-2.9,-1.2,-2.6,nt,-0.7,2.3,-0.4,13.5,2.6
COc1ccccc1NC(=O)CSc1nnc(Cc2cccs2)n1C,1.8,1.7,-2.2,-0.7,0.3%,-8.9,-5.9,0.5,-2.9,nt
Cc1nc2nc[nH]n2c(=O)c1CCOC(=O)c1c(F)cccc1F,-9.7,-11.6,-3.2,4.8,-6.6%,5.4,1.4,-0.4,-4.7,1.0
CCc1cccc(NS(=O)(=O)c2ccc3c(c2)N(C)CCO3)c1,-10.7,-22.5,-0.5,11.1,?,7.6,-3.5,-1.1,16.5,-3.2
O=C(NCCN1C(=O)S/C(=C\c2cccnc2)C1=O)C1=NN(c2ccccc2)C(=O)CC1,8.6,-7.9,-0.2,-10.7,6.5%,-7.1,-7.5,0.3,0.2,-3.9
O=C(NNC(=O)c1ccc([N+](=O)[O-])cc1C(=O)O)c1ccncc1,9.8,19.1,1.2,nt,-2.0%,-6.1,8.5,1.1,-0.6,-0.4
CCOCCCNS(=O)(=O)c1ccc(NC(=O)c2ccc([N+](=O)[O-])cc2Cl)cc1,-6.8,-5.6,-4.7,0.4,7.2%,-6.8,5.1,0.6,25.3,7.9
O=C(OCC1OC(n2ccc(=O)[nH]c2=O)C(O)C1OC(=O)c1ccccc1)c1ccccc1 (stereo unspecified),nt,nt,nt,-4.2,3.4%,nt,-2.7,0.0,0.2,0.2
O=C(C[n+]1cccc2ccccc21)c1ccc(NC(=O)c2ccccc2)cc1,4.1,12.9,0.1,1.7,-2.7%,0.9,-11.1,0.1,5.3,-0.8
COc1ccc(CCNC(=O)C2CCN(S(=O)(=O)c3ccc(C)cc3)CC2)cc1,3.1,11.3,0.2,nt,nt,2.1,-2.0,0.3,-2.0,-2.8
Cc1ccnc2nc(C(=O)NCCc3ccc(F)cc3)nn12,nt,nt,nt,nt,2.7%,nt,-12.7,1.4,-4.2,-2.2
Cc1cc(C)cc(OCC(=O)Nc2ccccc2C(=O)NCc2ccco2)c1,nt,nt,nt,9.7,17.2%,nt,-2.7,0.4,6.6,-3.0
COc1cc(NC(=O)c2cc(-c3cccnc3)nc3ccc(Br)cc23)cc(OC)c1,15.9,8.4,2.9,13.7,-34.2%,-4.2,-4.6,0.2,6.3,0.6
Cn1c(NNC(=O)CCC2CCCCC2)cc(=O)n(C)c1=O,5.4,5.6,-0.8,-3.5,22.4%,-13.2,16.3,0.4,0.6,8.1
CSc1ccc(CCNC(=O)CCc2nnc3ccc(N4CCOCC4)nn23)cc1,3.6,2.3,-0.6,0.9,nt,5.6,4.0,-0.5,-5.4,3.7
COc1ccc(C(=O)OCC(=O)NCCCc2ccccc2)cc1[N+](=O)[O-],23.1,4.6,0.5,-13.2,-0.3%,-4.4,-1.0,0.5,-0.1,1.2
Cc1ccc(CCNC(=O)c2cc(S(=O)(=O)N3CCCC3)cn2C)cc1,6.6,-2.3,12.2,-4.6,nt,-2.8,3.2,0.1,0.3,-1.6
CCOc1ccccc1NC(=O)c1csc(C)c1C,-30.6*,-23.6*,-2.6*,0.4,nt,-3.7,-4.7,0.0,3.7,?
CCOC(=O)c1ccc(NCc2cccnc2)cc1,-5.5,-11.2,-1.4,11.6,nt,-5.5,1.4,-0.3,6.8,4.8
CCOC(=O)C1C(=O)NC(c2ccccc2)=NC1c1ccc(O)c(OC)c1 (stereo unspecified),3.6,11.8,4.2,nt,-11.8%,-7.7,7.4,0.8,-22.3,2.3
O=C(CCC(=O)OCC(=O)c1ccccc1)Nc1cccc(Cl)c1,1.5,5.1,-9.0,1.9,-7.4%,-7.1,-14.8,-0.5,-4.0,0.5
Cc1cccn2c(=O)c3cc(S(=O)(=O)c4ccccc4)c(=N)n(Cc4ccco4)c3nc12,0.3,-5.6,-3.8,-8.1,5.1%,-2.5,-19.6,0.2,-1.0,93.2*
COc1cc(C(NC(C)=O)NC(C)=O)ccc1OCc1ccccc1,nt,nt,nt,nt,nt,-0.1,7.8,1.3,-2.1,-7.9
COCCNC(=S)N1CCc2cc(OC)c(OC)cc2C1COc1ccc(C(C)C)cc1 (stereo unspecified),24.1,11.0,-9.5,-7.4,-1.4%,7.6,5.1,-0.1,23.8,-4.9
Cc1c(C#N)c2ccccc2n1CC(=O)N1CCCC1,nt,nt,nt,-1.2,?,nt,-1.2,2.5,-1.2,-3.8
CCOC(=O)C1=C(O)/C(=C\c2ccc(CNC(=O)C(=O)Nc3ccccc3)o2)N=C1C,nt,nt,nt,-7.4,1.86µM*,nt,2.3,-0.2,-5.8,3.3
O=C(c1cccc(Cl)c1)C1CCCN(S(=O)(=O)c2ccccc2)C1 (stereo unspecified),-15.0,-26.1,-3.1,3.1,3.6%,-3.5,12.4,0.9,15.1,-0.9
Cc1onc(-c2ccccc2)c1C(=O)OCC(=O)NC(=O)c1ccccc1,1.3,6.6,-0.3,-6.9,-4.6%,-1.5,12.5,0.3,-6.9,-2.8
Cc1ccc(/C=N/NC(=O)C2(O)c3ccccc3-c3ccccc32)o1,nt,nt,nt,-3.2,nt,nt,0.5,-0.2,3.4,3.1
Cc1ccc(C)c2[nH]c(=O)c(CN(Cc3cccs3)C(=S)NCc3ccco3)cc12,nt,nt,nt,4.3,1.2%,nt,16.8,0.8,-2.5,1.3
Cn1c(SCC(=O)NC2CCCC2)nc2c(c1=O)SCC2,-1.6,4.8,-1.5,-13.6,nt,0.0,-1.6,0.2,2.2,3.0
Cc1ccccc1/C=C1\Oc2ccccc2C1=O,-53.0,-52.6,-17.9,4.3,nt,12.4,nt,-2.2,nt,nt
Cc1cc(NC(=O)c2cc(-c3ccccn3)nc3c(Cl)cccc23)no1,8.7,18.8,1.7,1.0,nt,0.3,-0.1,0.0,-6.7,2.8
O=C(c1ccc2c(=O)n3c(nc2c1)CCCCC3)N1CCN(c2ccc(Cl)cc2)CC1,6.2,-34.5,3.5,-1.5,nt,1.1,4.6,-0.2,-1.3,0.9
O=C(NCc1ccco1)C(c1ccc(F)cc1)N(C(=O)Cc1cccs1)c1cccnc1 (stereo unspecified),7.0,17.1,3.9,-3.9,-0.5%,0.5,15.0,0.0,-13.1,7.8
Cc1ccc(CN2CCN(/N=C/c3cccnc3)CC2)cc1,nt,nt,nt,3.6,-1.6%,nt,-2.3,0.1,4.7,2.0
O=C(CNC(=O)c1cccc(F)c1)OCC(=O)N1CCCc2ccccc21,nt,nt,nt,-3.1,-0.7%,nt,3.7,0.3,-27.6,1.2
CCn1c(CSc2nc(C)cc(C)n2)nnc1SCC(N)=O,4.9,3.0,2.6,-7.3,nt,-1.3,-8.9,0.0,-13.3,1.1
COc1cc2c(cc1OC)C(C)N(C(=O)/C=C/c1cc(OC)c(OC)c(OC)c1)CC2 (stereo unspecified),2.2,6.4,-0.5,nt,2.1%,-1.2,5.2,1.5,0.4,1.2
CC(=O)CC(=O)NC(=NC1CCCCC1)Nc1nc(C)cc(C)n1,nt,nt,nt,nt,-9.0%,nt,-15.6,0.8,6.9,0.7
CCOC(=O)Cc1nnc(NC(=O)CSc2nnc3c4ccccc4n(C)c3n2)s1,nt,nt,nt,nt,-2.0%,nt,23.4,0.9,-17.5,-4.2
CN1CCN(C(=O)CCc2nc3ccccc3n2-c2ccccc2)CC1,3.5,5.3,0.0,-0.1,-1.3%,2.3,-2.8,-0.2,14.0,2.8
O=C(CC1NCCN(Cc2ccccc2)C1=O)Nc1ccc(Cl)cc1 (stereo unspecified),1.8,3.1,8.3,-7.3,nt,0.7,4.1,1.7,-0.3,-2.3
COc1ccc(OC)c(C2C3CN(C(C)C)CC=C3C(C#N)=C(N)C2(C#N)C#N)c1 (stereo unspecified),nt,nt,nt,-0.8,1.5%,nt,-13.4,-0.2,-0.6,30.5*
Cn1cc([N+](=O)[O-])c(C(=O)Nc2ccn(Cc3c(F)c(F)cc(F)c3F)n2)n1,nt,nt,nt,-25.4,1.3%,nt,-5.7,0.3,-10.3,-0.4
Cc1ccc(C(=O)NC2CCS(=O)(=O)C2)cc1S(=O)(=O)N1CCOCC1 (stereo unspecified),nt,nt,nt,-5.7,-8.2%,nt,6.4,0.7,-5.7,?
COc1ccc(NC(=O)c2cc3ccccc3cc2OC)cc1,-32.2,-34.6,-13.3,2.8,nt,-2.3,13.5,-0.5,8.6,?
Fc1ccc(CNc2nc(-c3cccnc3)nc3ccccc23)cc1,-59.7,-79.9,-18.8,15.4,nt,1.0,7.8,0.0,56.3*,?

# Single values from the entries so far:
# Result of CCc1cccc(NS(=O)(=O)c2ccc3c(c2)N(C)CCO3)c1 in RanGTP-Imp inh: -3.2
# Result of CCn1c(CSc2nc(C)cc(C)n2)nnc1SCC(N)=O in Ecoli rRNA inh: 4.9

# Four entries out of the list above, sorted by the number in MLL AF4-AF9 inh, falling:
structure | MLL AF4-AF9 inh
O=C(c1ccc2c(=O)n3c(nc2c1)CCCCC3)N1CCN(c2ccc(Cl)cc2)CC1 | 1.1
Fc1ccc(CNc2nc(-c3cccnc3)nc3ccccc23)cc1 | 1.0
O=C(NCc1ccco1)C(c1ccc(F)cc1)N(C(=O)Cc1cccs1)c1cccnc1 (stereo unspecified) | 0.5
Cn1c(SCC(=O)NC2CCCC2)nc2c(c1=O)SCC2 | 0.0

# An excerpt; rates above refer to the full screens.
